Bioassay records as filed in PubChem.
KCNQ2 block – KCNQ2 potassium channel inhibitors, primary screen, cell-based, CHO-K1, FluxOR thallium flux, B-score (AID 2156) | O88943 | 20 min; hits give low values; only compounds with negative scores are shown here; some inactives read as strong as hits | B-score at 10 µM | hit rate 1.1% among 310,000;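 active = fluorescence ratio B-score at most minus 3 library SDs, with starting brightness B-score within 2 library SDs, cut at about -5.5 in these data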
Target sequence (O88943 whole entry, looked up): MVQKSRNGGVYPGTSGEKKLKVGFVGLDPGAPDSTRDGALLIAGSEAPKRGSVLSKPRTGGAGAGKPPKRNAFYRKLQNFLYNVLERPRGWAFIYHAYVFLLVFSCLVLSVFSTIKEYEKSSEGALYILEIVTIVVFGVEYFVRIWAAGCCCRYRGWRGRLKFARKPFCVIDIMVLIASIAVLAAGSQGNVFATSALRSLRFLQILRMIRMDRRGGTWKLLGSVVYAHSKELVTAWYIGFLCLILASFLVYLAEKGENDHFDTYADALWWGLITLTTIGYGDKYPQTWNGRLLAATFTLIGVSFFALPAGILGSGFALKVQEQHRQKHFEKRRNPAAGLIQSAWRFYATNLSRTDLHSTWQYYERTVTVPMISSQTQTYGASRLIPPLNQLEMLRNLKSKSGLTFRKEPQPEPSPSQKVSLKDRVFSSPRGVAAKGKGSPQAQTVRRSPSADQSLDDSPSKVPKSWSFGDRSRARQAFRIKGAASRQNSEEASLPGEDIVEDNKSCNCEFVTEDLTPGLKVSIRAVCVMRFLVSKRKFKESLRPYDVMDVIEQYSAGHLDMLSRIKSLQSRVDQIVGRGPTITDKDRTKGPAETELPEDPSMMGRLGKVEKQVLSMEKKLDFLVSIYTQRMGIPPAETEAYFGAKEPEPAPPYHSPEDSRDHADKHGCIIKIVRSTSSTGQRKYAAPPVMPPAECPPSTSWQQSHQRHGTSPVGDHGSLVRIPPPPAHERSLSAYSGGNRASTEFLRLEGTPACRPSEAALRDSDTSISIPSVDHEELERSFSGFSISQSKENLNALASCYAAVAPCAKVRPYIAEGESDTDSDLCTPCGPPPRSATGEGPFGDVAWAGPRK
KCNQ2 block baseline – also measured in KCNQ2 block; calls as there; B-score; measured here: initial fluorescence intensity artifact check;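 brightness before thallium and not channel activity; 0 = typical well and far values either way flag optical interference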
Starred values were filed as active, the others as inactive.

What do the screens show for `COc1cccc(C(=O)Oc2c(Br)cc(Br)cc2/C=N/NC(=O)c2cc(C)[nH]n2)c1`?
KCNQ2 block: inactive; KCNQ2 block baseline: 0.64

Results for O=C(NCC(=O)N1CCC2(CC1)NCCc1[nH]cnc12)c1ccc2ccccc2c1 ?
KCNQ2 block: inactive; KCNQ2 block baseline: -0.1

How did O=C(N/N=C/c1cccnc1)c1ccc(O)cc1 do in these assays?
KCNQ2 block: inactive; KCNQ2 block baseline: -1.05

How did O=C(Cc1ccccc1F)c1ccc(O)cc1O do in these assays?
KCNQ2 block: inactive; KCNQ2 block baseline: -0.62

Results for COCCNC(=O)C(c1ccc(Cl)cc1)N(Cc1ccco1)C(=O)CCC(=O)Nc1ccccn1 (configuration not stated) ?
KCNQ2 block: inactive; KCNQ2 block baseline: -1.43

What do the screens show for `O=C(O)CC/C(=N\NC(=O)c1ccccc1)c1cccs1`?
KCNQ2 block: inactive; KCNQ2 block baseline: 1.9

Results for COc1ccc(N2CCN(C(=O)CSc3nnc(CNc4ccccc4)o3)CC2)cc1 ?
KCNQ2 block: inactive; KCNQ2 block baseline: 2.38

What do the screens show for `COc1ccc(-n2cnnc2SCC(=O)N2CCN(S(=O)(=O)c3ccccc3)CC2)cc1`?
KCNQ2 block: inactive; KCNQ2 block baseline: -0.01

How did CC(C)(C)C(=O)Nc1nnc(Cc2ccccc2)s1 do in these assays?
KCNQ2 block: inactive; KCNQ2 block baseline: -2.29

Results for CN1CC=C2C(C#N)=C(N)C(C#N)(C#N)C(Cc3ccccc3)C2C1 (configuration not stated) ?
KCNQ2 block: inactive; KCNQ2 block baseline: 6.23

What do the screens show for `O=C(CSc1ccc(Cl)cc1)Nc1nnc(-c2cccc([N+](=O)[O-])c2)s1`?
KCNQ2 block: inactive; KCNQ2 block baseline: -0.14

How did Cc1ccc(C(=O)CSc2nnc(COc3ccccc3)o2)cc1 do in these assays?
KCNQ2 block: inactive; KCNQ2 block baseline: -1.87

Results for COc1ccc2c(c1)OCC1=C2CCC2(C)C(=O)CC=C12 (configuration not stated) ?
KCNQ2 block: inactive; KCNQ2 block baseline: -0.35

Results for CC(NC(=O)c1cccc2ccccc12)c1ccc2c(c1)CCCC2 (configuration not stated) ?
KCNQ2 block: inactive; KCNQ2 block baseline: -0.12

How did COc1ccc(OC)c(/C=N/NC(=O)Cn2ccnc2C)c1 do in these assays?
KCNQ2 block: inactive; KCNQ2 block baseline: -1.04

What do the screens show for `OCCNc1nc2ccccc2nc1NCCO`?
KCNQ2 block: inactive; KCNQ2 block baseline: 0.08

Results for CN1CCN(c2nc(Nc3ccc(O)cc3)nc3ccccc23)CC1 ?
KCNQ2 block: inactive; KCNQ2 block baseline: 1.88

How did CCOc1ccc(NC(=S)N2CCCCCC2)cc1 do in these assays?
KCNQ2 block: inactive; KCNQ2 block baseline: 1.35

How did CC(C)[C@@H](C(=O)NCc1ccco1)N1C(=O)N2CCc3c([nH]c4ccccc34)[C@@]2(C)C1=O do in these assays?
KCNQ2 block: inactive; KCNQ2 block baseline: 1.04

How did Cc1noc(C)c1S(=O)(=O)NC1CCN(Cc2ccccc2)CC1 do in these assays?
KCNQ2 block: inactive; KCNQ2 block baseline: 1.03

Results for COc1ccc(C(=O)CSc2ccc(-c3ccc(C)cc3)nn2)cc1 ?
KCNQ2 block: inactive; KCNQ2 block baseline: 0.71

How did Cc1ccc(N=Nc2ccc(O)c(P(=O)(c3ccccc3)c3ccccc3)c2)cc1 do in these assays?
KCNQ2 block: inactive; KCNQ2 block baseline: -1.38

How did CCN1CCN(C(=O)c2cccc(OC3CCN(S(=O)(=O)N(C)C)CC3)c2)CC1 do in these assays?
KCNQ2 block: inactive; KCNQ2 block baseline: -0.57

How did CC(=O)c1c(C)[nH]c(C(=O)OCC(=O)NCC(C)C)c1C do in these assays?
KCNQ2 block: inactive; KCNQ2 block baseline: 1.77

What do the screens show for `CC(=O)n1cc([C@H]2C=C(C(=O)Nc3ccccc3)O[C@@H](OCCCCO)C2)c2ccccc21`?
KCNQ2 block: inactive; KCNQ2 block baseline: -0.61

Results for O=C(CN1C(=O)NC2(CCOc3ccccc32)C1=O)Nc1ccc2c(c1)OCCO2 (configuration not stated) ?
KCNQ2 block: inactive; KCNQ2 block baseline: -0.3

Results for Cc1ccc(S(=O)(=O)NC(C(=O)Oc2ccc3c(C)c(Cl)c(=O)oc3c2)c2ccccc2)cc1 (configuration not stated) ?
KCNQ2 block: inactive; KCNQ2 block baseline: 1.15

Results for Cc1ccc(-c2c(CC(=O)O)c(C)nc3sc4c(c23)CCCC4)cc1 ?
KCNQ2 block: inactive; KCNQ2 block baseline: -0.67

Results for COCCNC(=O)CN1CCC(NC(=O)Nc2ccc(C(F)(F)F)cc2)CC1 ?
KCNQ2 block: inactive; KCNQ2 block baseline: -0.5

What do the screens show for `Cc1[nH]c2c([N+](=O)[O-])cccc2c1C`?
KCNQ2 block: inactive; KCNQ2 block baseline: 1.16

How did CCN1CCN(C(=O)c2nn(-c3ccc(OC)cc3)c(=O)c3c2c2ccccc2n3C)CC1 do in these assays?
KCNQ2 block: inactive; KCNQ2 block baseline: 0.83

How did C/C(=C\C#N)n1nc(C)cc1N do in these assays?
KCNQ2 block: inactive; KCNQ2 block baseline: 0.86

What do the screens show for `COc1ccccc1CCNC(=O)Nc1cccc([N+](=O)[O-])c1`?
KCNQ2 block: inactive; KCNQ2 block baseline: -1.06

Results for O=C(COC(=O)Cc1ccsc1)Nc1ccccc1 ?
KCNQ2 block: inactive; KCNQ2 block baseline: 1.71

How did CCOC(=O)C1CCCN(C(=O)c2ccc3c(c2)N(Cc2ccccc2)C(=O)c2ccccc2S3=O)C1 (configuration not stated) do in these assays?
KCNQ2 block: inactive; KCNQ2 block baseline: 2.48

What do the screens show for `Cc1cc(/C=C2/SC(=O)N(CC(=O)N3CCCC3)C2=O)ccc1N1CCOCC1`?
KCNQ2 block: inactive; KCNQ2 block baseline: 3.34

How did CCN(CC(=O)Nc1c(F)cccc1F)C(=O)c1ccc(Cl)c(S(=O)(=O)N2CCCCC2)c1 do in these assays?
KCNQ2 block: inactive; KCNQ2 block baseline: -0.02

How did O=C(COC(=O)c1cc[n+]([O-])cc1)Nc1ccc(Cl)cc1[N+](=O)[O-] do in these assays?
KCNQ2 block: inactive; KCNQ2 block baseline: -0.05

Results for CCOC(=O)c1ccc(NC(=O)CSc2nccn2C)cc1 ?
KCNQ2 block: inactive; KCNQ2 block baseline: -1.18

How did COc1ccc(C(CC(=O)NCc2ccccc2)C(C)C)cc1 (configuration not stated) do in these assays?
KCNQ2 block: inactive; KCNQ2 block baseline: 0.07

What do the screens show for `CCOC(=O)N1CCC(NC(=O)c2cc(COc3ccc(F)cc3Cl)on2)CC1`?
KCNQ2 block: inactive; KCNQ2 block baseline: -2.87

Results for O=C1C(=O)c2c(C(=O)c3ccccc3)coc2-c2ccccc21 ?
KCNQ2 block: inactive; KCNQ2 block baseline: -1.13

What do the screens show for `CN(C)CCCNC(=S)N1CCn2c(nc3ccccc32)C1`?
KCNQ2 block: inactive; KCNQ2 block baseline: 0.15

How did CCOc1ccc(S(=O)(=O)N2CCCCC2)c2ccccc12 do in these assays?
KCNQ2 block: inactive; KCNQ2 block baseline: -0.28

What do the screens show for `COCCC(=O)N1CCC(Oc2ccc(C(=O)NCCc3ccccn3)cc2)CC1`?
KCNQ2 block: inactive; KCNQ2 block baseline: -0.67

What do the screens show for `O=C(N=C1c2ccccc2CN1c1ccc(F)c(F)c1)c1cccnc1`?
KCNQ2 block: inactive; KCNQ2 block baseline: -0.11

Results for CCCn1c(SCc2ccccc2)nc2c1c(=O)[nH]c(=O)n2C ?
KCNQ2 block: inactive; KCNQ2 block baseline: -0.87

What do the screens show for `Cc1cccc(C)c1NC(=O)CCCSc1nnc(-c2ccc(F)cc2)n1-c1ccccc1`?
KCNQ2 block: inactive; KCNQ2 block baseline: -3.5

Results for COc1ccc(/C=C2\SC(=S)N(CCC(=O)NC3C=CS(=O)(=O)C3)C2=O)cc1 (configuration not stated) ?
KCNQ2 block: inactive; KCNQ2 block baseline: 0.62

What do the screens show for `Cc1c(C(=O)N2CCN(c3ncccn3)CC2)oc2c(Cl)cccc12`?
KCNQ2 block: inactive; KCNQ2 block baseline: 1.03

How did NC1=NC2(CCN(Cc3ccccc3)CC2)n2c(nc3ccccc32)N1 do in these assays?
KCNQ2 block: inactive; KCNQ2 block baseline: -1.65

How did CCOCCCNC(=O)c1cc(Sc2ccc(F)cc2)nc2ccccc12 do in these assays?
KCNQ2 block: inactive; KCNQ2 block baseline: 0.16

What do the screens show for `CN(CCc1ccccn1)C(=O)CCc1nnc(CCCc2ccccc2)o1`?
KCNQ2 block: inactive; KCNQ2 block baseline: -0.49

How did Brc1ccc(-c2csc(N3CCC(c4ccccc4)C3)n2)cc1 (configuration not stated) do in these assays?
KCNQ2 block: inactive; KCNQ2 block baseline: 0.87

What do the screens show for `Cc1cc(C)nc(SCCC(=O)Nc2ccccc2C)n1`?
KCNQ2 block: inactive; KCNQ2 block baseline: -0.03

What do the screens show for `Cc1cccc(NC(=S)NCc2ccccn2)c1`?
KCNQ2 block: inactive; KCNQ2 block baseline: 0.27

How did CC(C)c1ccc(/C=C2\C(=N)N3N=C(CC(=O)N4CCCCC4)SC3=NC2=O)cc1 do in these assays?
KCNQ2 block: inactive; KCNQ2 block baseline: -0.99

Results for O=C(CC(Nc1ccccc1Cl)C(=O)OCC(=O)c1cccs1)c1ccccc1 (configuration not stated) ?
KCNQ2 block: inactive; KCNQ2 block baseline: -1.57

How did O=C1c2ccccc2C(=O)N1C/C=C/c1ccccc1 do in these assays?
KCNQ2 block: inactive; KCNQ2 block baseline: 1.73

What do the screens show for `Cc1cc(C)c(C)c(N=Nc2nc3ccccc3n2C)c1C`?
KCNQ2 block: inactive; KCNQ2 block baseline: 0.6

Results for Cc1ccc(S(=O)(=O)N(C)C)cc1NC(=O)COC(=O)CCC(=O)c1cccs1 ?
KCNQ2 block: inactive; KCNQ2 block baseline: -1.15

What do the screens show for `Cc1noc(NS(=O)(=O)c2ccc(NC(=O)c3cnc4scc(C)n4c3=O)cc2)c1C`?
KCNQ2 block: inactive; KCNQ2 block baseline: 3.01

How did Cc1c(-c2ccccc2)[n+](=O)c(-c2ccco2)c(C)n1[O-] do in these assays?
KCNQ2 block: inactive; KCNQ2 block baseline: -0.47

How did O=C(NCC(=O)N(Cc1ccco1)C(C(=O)NC1CCCC1)c1cccnc1)c1cccs1 (configuration not stated) do in these assays?
KCNQ2 block: inactive; KCNQ2 block baseline: -1.27

How did O=C(NC(NC(=S)Nc1ccc(Cl)c(Cl)c1)C(Cl)(Cl)Cl)c1ccco1 (configuration not stated) do in these assays?
KCNQ2 block: inactive; KCNQ2 block baseline: -0.42

Results for CC(=O)Nc1ccc(OCCCNC(=O)c2c(-c3ccccc3)noc2C)cc1 ?
KCNQ2 block: inactive; KCNQ2 block baseline: 2.16

Results for COc1ccc(S(=O)(=O)NC2CCCCC2)cc1-n1cnnn1 ?
KCNQ2 block: inactive; KCNQ2 block baseline: -1.15

How did O=C(CSc1nnc(-c2ccncc2)n1-c1ccc(Cl)cc1)NCc1cccs1 do in these assays?
KCNQ2 block: inactive; KCNQ2 block baseline: 0.81

Results for COc1ccc(N/C(N)=N/c2nc(CSc3nnc(C)s3)cc(=O)[nH]2)cc1 ?
KCNQ2 block: inactive; KCNQ2 block baseline: 0.62

What do the screens show for `CC(C)Cn1c(N)c(C(=O)COC(=O)[C@@H]2CCCN2C(=O)c2cccs2)c(=O)n(C)c1=O`?
KCNQ2 block: inactive; KCNQ2 block baseline: -1.42

How did COc1ccc(-n2c(SCCC#N)nnc2-c2cc(Cl)ccc2OC)cc1Cl do in these assays?
KCNQ2 block: inactive; KCNQ2 block baseline: 0.06

Results for O=C(O)CC(SCC(=O)Nc1ccc(Cl)c(S(=O)(=O)N2CCOCC2)c1)C(=O)O (configuration not stated) ?
KCNQ2 block: inactive; KCNQ2 block baseline: 0.62

Results for C=CCn1c(=O)c2c(C)c(C)sc2n2c(Nc3ccc(OC)cc3)nnc12 ?
KCNQ2 block: inactive; KCNQ2 block baseline: -0.05

How did NC(=O)CC(NC(=O)c1ccc(Br)cc1)c1ccc(N2CCCCCCC2)c([N+](=O)[O-])c1 (configuration not stated) do in these assays?
KCNQ2 block: inactive; KCNQ2 block baseline: -1.53

How did CCOc1cc(/C=N/O)cc(Br)c1OC do in these assays?
KCNQ2 block: inactive; KCNQ2 block baseline: 1.24

Results for Cc1cc(OCC(=O)C(C)(C)C)c2c(-c3ccccc3)cc(=O)oc2c1 ?
KCNQ2 block: inactive; KCNQ2 block baseline: -0.61

How did Cc1cc(-n2nnc3ccccc32)nc2ccccc12 do in these assays?
KCNQ2 block: inactive; KCNQ2 block baseline: 0.13

The list is partial (hit frequency here may not be typical).
